CtBP-E1A inh = qHTS Assay for Inhibitors of the CtBP/E1A Interaction; AID 651724, 2012; 0.49% of 340,000 active; AlphaScreen GST-E1A/His-CtBP binding, 1536-well; stronger effect = lower value; control for the full effect not named in the record; activity change, % (concentration not given with the values); in the data active means activity change below about -65%; inconclusive means about -30% to -65%; inactive means above about -30%; further: on the % scale 0 is the no-effect control and ±100 the full control effect
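In 5 uL wells, 23 nL compound meets equimolar GST-E1A and His-CtBP (5X stock 125 nM each) for 2 h, 37 °C. Beads (5X, 50 ug/mL) then 1 h, 37 °C, dark.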
TRPML1 blocker = qHTS for Inhibitors of the Human Mucolipin Transient Receptor Potential 1 (TRPML1); Mucolipin-1 (Homo sapiens), Q9GZU1; TRPML1-inducible cells, Ca2+ dye fluorescence, FDSS; stronger effect = lower value; inhibition of EC80 agonist-evoked calcium signal; activity change, negative = inhibition, % (test concentration not listed); 0.02% of 390,000 active; AID 624415, 2012; in the data active means activity change below about -50%; inconclusive means about -30% to -50%; inactive means above about -30%;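 further: stimulus is agonist 54-4 at its EC80 concentration; on the % scale 0 is the no-effect control and ±100 the full control effect; compound concentration not given in the record; the text of the record puts the active cut at -80%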
Target sequence (Q9GZU1 whole entry, looked up): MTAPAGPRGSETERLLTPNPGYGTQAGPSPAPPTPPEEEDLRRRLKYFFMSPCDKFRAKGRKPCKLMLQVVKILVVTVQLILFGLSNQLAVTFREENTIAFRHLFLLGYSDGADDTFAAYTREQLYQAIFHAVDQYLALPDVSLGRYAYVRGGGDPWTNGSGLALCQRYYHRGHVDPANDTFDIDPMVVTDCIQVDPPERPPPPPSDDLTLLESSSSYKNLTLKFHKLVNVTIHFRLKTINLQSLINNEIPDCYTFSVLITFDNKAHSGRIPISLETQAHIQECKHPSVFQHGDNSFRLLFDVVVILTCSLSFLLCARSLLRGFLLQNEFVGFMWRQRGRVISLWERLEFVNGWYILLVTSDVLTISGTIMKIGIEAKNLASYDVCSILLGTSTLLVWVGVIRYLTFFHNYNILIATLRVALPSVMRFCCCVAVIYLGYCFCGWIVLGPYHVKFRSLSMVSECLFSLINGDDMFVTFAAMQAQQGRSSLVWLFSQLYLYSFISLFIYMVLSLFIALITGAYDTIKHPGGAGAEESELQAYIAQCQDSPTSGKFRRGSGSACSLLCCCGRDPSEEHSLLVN
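Tet-induced TRPML1-DL cells loaded with Ca8 no-wash calcium dye were read kinetically on FDSS. Compound addition was followed by EC80 agonist 54-4 (4 uM final); inhibition was read over 110 s.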
TRPML1 ag = qHTS for Agonists of the Human Mucolipin Transient Receptor Potential 1 (TRPML1); Mucolipin-1 (Homo sapiens), Q9GZU1; TRPML1-expressing cells, Ca2+ dye fluorescence, FDSS; host cell line not named in the record; reference of the full effect not given here; activation, % (test concentration not listed); 0.12% of 410,000 active; in the data active = activation above about 50%; inconclusive = about 30% to 50%; inactive = below about 30%; further: 0% is about no effect; the text of the record puts the active cut at 80%
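Tetracycline-induced TRPML1-DL cells are seeded and incubated overnight before loading with a no-wash Ca2+ dye and quencher. Agonist activity is taken from the 110 s fluorescence read following compound pin-transfer on an FDSS, before EC80 54-4 challenge.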
TRPV1 potentiator = HTS Assay for Compounds that Act as Potentiators of the Vanilloid Receptor 1 | TRPV1-expressing cells, Fluo-8 calcium influx, capsaicin EC20 potentiation; host cell line not named in the record; control for the full effect not named in the record | potentiation, % at 8.33 µM | 0.02% of 320,000 active | AID 540277, 2011; active means potentiation above 80%; inconclusive means 30% to 80%; inactive means below 30%; further: 0% is about no effect
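Fluo-8 calcium influx in TRPV1-expressing cells, kinetic read (ex 480/em 520 nm). Compound added and read 3 min for agonist activity, followed by capsaicin at EC20 final and 2 min further read for enhancement.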
Six1-Eya2 inh = qHTS Assay for Inhibitors of the Six1/Eya2 Interaction; Homeobox protein SIX1 (Homo sapiens) + Protein phosphatase EYA2 (Homo sapiens), …; AlphaScreen GST-Six1/His-Eya2 binding, biochemical; stronger effect = lower value; control for the full effect not named in the record; activity change, % (no concentration beside the values); 0.56% of 360,000 active; in the data active = activity change below about -65%; inconclusive = about -30% to -65%; inactive = above about -30%; further: on the % scale 0 is the no-effect control and ±100 the full control effect; compound concentration not given in the record
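Homogeneous AlphaScreen proximity assay pairing GST-Six1 with His-tagged Eya2 (added as 5X mix: 250 nM and 500 nM) in 50 mM Tris pH 8.0, 300 mM NaCl, 1 mM TCEP. Glutathione donor and nickel acceptor beads; 1 h, 37 °C, dark.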
D2 potentiator = Beta-Arrestin HTS for Positive Allosteric Modulators of the Human D2 Dopamine Receptor: Potentiators | 0.23% of 360,000 active | AID 624464, 2012 | potentiation, % (no concentration beside the values) | DiscoveRx D2 beta-arrestin cells, luminescence, 90 min; 100% = 57 uM dopamine signal | D(2) dopamine receptor (Homo sapiens), P14416; active = potentiation of 50% or more; inconclusive = 30% to 50%; inactive = 30% or less;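 further: compound concentration not given in the record; tested on top of an EC20 dose of dopamine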
Target sequence (P14416 whole entry, looked up): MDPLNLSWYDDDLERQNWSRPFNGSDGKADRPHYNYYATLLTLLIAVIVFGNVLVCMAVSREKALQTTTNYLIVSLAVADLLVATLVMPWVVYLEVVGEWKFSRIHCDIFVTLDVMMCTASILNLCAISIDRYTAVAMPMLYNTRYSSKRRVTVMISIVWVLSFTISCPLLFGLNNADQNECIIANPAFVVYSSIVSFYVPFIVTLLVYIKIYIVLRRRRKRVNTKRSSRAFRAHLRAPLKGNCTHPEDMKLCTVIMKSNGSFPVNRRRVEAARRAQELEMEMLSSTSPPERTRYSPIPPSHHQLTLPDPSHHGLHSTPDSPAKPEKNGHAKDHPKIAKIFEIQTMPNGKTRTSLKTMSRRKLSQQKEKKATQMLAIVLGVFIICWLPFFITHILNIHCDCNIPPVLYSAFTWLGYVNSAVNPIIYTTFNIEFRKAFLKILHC
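D2 cells co-treated with compound plus 50 nM dopamine (EC20) for 90 min at 37 deg C to detect potentiation. Beta-arrestin recruitment was read as enzyme-fragment luminescence after 1 h at ambient temperature. Full response was set by 57 uM dopamine.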
* = called active by the depositor; ? = inconclusive; . = not tested or not shown; & = joins results of further samples.

1: Cc1cc(=O)n2c(nc3ccccc32)[nH]1
2: COc1ccccc1NC(=O)CCN1CCN(C)CC1
3: OC(COCCOc1ccc(Br)cc1)CN1CCN(Cc2ccccc2)CC1 (centres undefined)
4: CCS(=O)(=O)c1nc(S(=O)(=O)c2ccc(C)cc2)c(N2CCC3(CC2)OCCO3)s1
5: N#CCc1cccnc1Sc1ccc(Cl)cc1
6: O=C(c1ccncc1)N1CCN(C2CCCCC2)CC1
7: CCN(Cc1ccccc1)CC(O)COc1ccccc1 (centres undefined)
8: O=C(Nc1cccc(C2OCCCO2)c1)c1cccs1
9: COc1ccccc1NC(=O)Cc1nc(CCl)cs1
10: CC(C)C[C@H]1CNC(=S)N1CC1CCCN1C[C@H](Cc1ccccc1)N1C[C@H](Cc2ccc(O)cc2)N(CC2CCCCC2)C1=S (some centres undefined)

assay / entry	1	2	3	4	5	6	7	8	9	10
CtBP-E1A inh	-11	.	-6	-14	12	-1	0	-9	0	-5
TRPML1 blocker	4	-17	-3	-18	26	4	28	-9	-17	-4
TRPML1 ag	0.3	3.6	0.6	0.4	4.1	-0.3	-0.1	0.1	1.0	-0.9
TRPV1 potentiator	11	1	-1	-24	.	4	-3	-7	-4	.
Six1-Eya2 inh	-1	4	-8	7	12	14	-3	14	6	-2
D2 potentiator	-2	1	-36	-1	-2	0	-35	0	-10	-10

11: CCOc1ccccc1NC(=S)NC(=O)CCCOc1ccc(Cl)cc1Cl
12: CN(CC(=O)Nc1ccc(N2CCOCC2)cc1)C(=O)CCc1ccccc1Cl
13: Cc1nnc(C)n1/N=C/c1cccnc1
14: Nc1nc(N2CCCCC2)nc2ccccc12
15: CCCOc1ccc(C(=O)N2CC3(CC(c4cccc(NC(=O)[C@@H]5CCC(=O)N5)c4)=NO3)C[C@H]2C(=O)NC2(C(N)=O)CC2)cc1 (some centres undefined)
16: CC(=O)Nc1sc2c(c1C#N)CCCC2
17: CCCC(=O)Nc1ccc(S(=O)(=O)N2CCCC2)cc1
18: Cc1cccc(NC(=O)C2CCN(C(=O)NC3CCCCC3)CC2)c1
19: [O-][N+]12CCN(CC1)c1ccccc12
20: CC1CCc2c(sc3ncn4c(SCC(=O)NCc5ccco5)nnc4c23)C1 (centres undefined)

assay / entry	11	12	13	14	15	16	17	18	19	20
CtBP-E1A inh	0	0	5	-4	0	-6	-13	17	-9	-5
TRPML1 blocker	13	1	-8	-6	3	3	0	12	9	-9
TRPML1 ag	2.8	-0.3	-0.5	-0.9	-0.4	1.6	0.2	-0.6	-0.3	0.5
TRPV1 potentiator	16	-21	21	0	7	9	1	-27	-1	9
Six1-Eya2 inh	-3	0	4	9	-6	0	0	9	-2	-4
D2 potentiator	-13	-14	-8	-16	4	-11	-1	-9	7	-3

Reformatted with each value named: entries from further up
#11 CCOc1ccccc1NC(=S)NC(=O)CCCOc1ccc(Cl)cc1Cl
  CtBP-E1A inh: 0
  TRPML1 blocker: 13
  TRPML1 ag: 2.8
  TRPV1 potentiator: 16
  Six1-Eya2 inh: -3
  D2 potentiator: -13
#17 CCCC(=O)Nc1ccc(S(=O)(=O)N2CCCC2)cc1
  CtBP-E1A inh: -13
  TRPML1 blocker: 0
  TRPML1 ag: 0.2
  TRPV1 potentiator: 1
  Six1-Eya2 inh: 0
  D2 potentiator: -1

(more compounds)
21: COc1ccc(-c2oc3ccc(-c4ccc(OC)nc4)cc3c2C#CC2(O)CCCCC2)cc1
22: Cn1nc(C(C)(C)C)c([N+](=O)[O-])c1C(=O)Nc1ccccc1
23: COc1ccccc1N(CC(=O)NCCc1ccccc1)C(=O)CCC(=O)Nc1cc(C)ccn1
24: CCOc1cc(N2CCOCC2)c(OCC)cc1NC(=O)CSc1n[nH]c(N)n1
25: Cn1c(CN2CCCC2)nc2cc(NC(=O)COc3ccc(Cl)cc3)ccc21
26: O=C(CSc1nc2cc(Cl)ccc2s1)NC(=O)NCc1ccco1
27: Cc1cnccc1CN(C)C(=O)CC1C(=O)NCCN1CC1CCCCC1 (centres undefined)
28: CCn1cc(C(C)NC(=O)Nc2ccccc2C(=O)OC)c(C)n1 (centres undefined)
29: Cc1cc(C(=O)NC2CC(C)(C)Cc3c2cnn3-c2ccccc2C)c(C)o1 (centres undefined)
30: Cc1ccc(NC2=Nc3ccccc3CS2)cc1

assay / entry	21	22	23	24	25	26	27	28	29	30
CtBP-E1A inh	-2	5	0	-18	8	-9	2	.	-16	-2
TRPML1 blocker	79	-1	-18	0	10	-10	-4	2	6	18
TRPML1 ag	-0.1	-0.6	0.0	-1.0	-0.2	-0.2	-0.7	-0.2	3.0	1.8
TRPV1 potentiator	-4	-2	-2	25	4	?	-3	10	-5	14
Six1-Eya2 inh	-6	7	0	6	-4	-21	2	15	-2	-4
D2 potentiator	-3	-2	-3	-45	-28	0	1	-3	-12	-15

31: O=[N+]([O-])c1ccc(-n2cnc3ccccc32)c([N+](=O)[O-])c1
32: CCOC(=O)C1CCCN(C(=O)COc2ccc(N(C)S(=O)(=O)c3ccc(C)cc3)cc2)C1 (centres undefined)
33: CCOC(=O)C1CCN(C(=O)COc2ccc3c(c2)OCO3)CC1
34: C/[N+]([O-])=C/c1c(OCc2ccccc2)ccc2ccccc12
35: COc1ccccc1C(=O)NNC(=S)NC(=O)c1sc2ccccc2c1Cl
36: CCOc1cc(N2CCOCC2)c(OCC)cc1NC(=O)c1ccc2ccccc2n1
37: CSc1ncnc2c1ncn2CCCN1CCN(c2ccccn2)CC1
38: Cc1cccnc1NCC(O)COc1ccccc1 (centres undefined)
39: COc1ccc(C2/C(=C(\O)c3ccc4c(c3)OCCO4)C(=O)C(=O)N2CCCN(C)C)c(OC)c1 (centres undefined)
40: COC(=O)C1CCN(C(=O)CCCOc2ccccc2)CC1

assay / entry	31	32	33	34	35	36	37	38	39	40
CtBP-E1A inh	-4	7	4	.	0	-17	-9	2	6	8
TRPML1 blocker	6	19	-25	-16	-11	19	12	-4	1	14
TRPML1 ag	1.1	-0.2	0.6	2.0	?	1.0	-0.4	-0.2	0.2	-0.1
TRPV1 potentiator	-1	1	10	?	-6	8	.	6	-6	-10
Six1-Eya2 inh	-5	1	1	6	11	?	-10	5	2	8
D2 potentiator	15	-5	-1	-8	-31	1	-2	-1	-13	10

41: CCCCCCCCCCOC(=O)NC1CCS(=O)(=O)C1 (centres undefined)
42: COc1ccc(O)c(C(=O)c2cnn(-c3ccccn3)c2)c1
43: O=C(c1ccncc1)N1CCN(C(=O)c2cccs2)CC1
44: Cc1ccc([C@@H]2C[C@H]3[C@@H](CN2S(=O)(=O)c2ccc(C)cc2)C(=O)C[C@@H](c2ccc(Cl)cc2)N3S(=O)(=O)c2ccccc2C)cc1
45: CC(C)CC(COCc1cccc(C(F)(F)F)c1)N1CCN(C(=O)c2cccc(C(F)(F)F)c2)CCC1=O (centres undefined)
46: Cc1csc(NC(=O)CCN2C(=O)c3ccccc3S2(=O)=O)n1
47: Cc1ccccc1S(=O)(=O)NC(=O)C1(C)CCN1C(=O)COc1ccc(Cl)cc1 (centres undefined)
48: CCn1c(SCC(=O)Nc2ccc(OC)cc2)nnc1-c1ccco1
49: CCN1CCN(S(=O)(=O)c2ccc(OC)c3ccccc23)CC1
50: Cc1oncc1C(=O)Nc1cccc(C#N)c1

assay / entry	41	42	43	44	45	46	47	48	49	50
CtBP-E1A inh	-9	8	4	3	4	1	1	-4	2	-15
TRPML1 blocker	48	7	1	16	5	0	0	-2	22	6
TRPML1 ag	-0.3	-1.2	-0.1	2.2	0.3	-0.4	-0.2	-1.1	1.2	1.1
TRPV1 potentiator	-9	-2	7	.	0	8	.	-2	0	-1
Six1-Eya2 inh	3	-3	-1	-2	-2	0	0	4	-2	15
D2 potentiator	3	7	-3	-1	-5	-12	0	-12	-5	-3

The last 4 entries of the part above open the next one.
47: Cc1ccccc1S(=O)(=O)NC(=O)C1(C)CCN1C(=O)COc1ccc(Cl)cc1 (centres undefined)
48: CCn1c(SCC(=O)Nc2ccc(OC)cc2)nnc1-c1ccco1
49: CCN1CCN(S(=O)(=O)c2ccc(OC)c3ccccc23)CC1
50: Cc1oncc1C(=O)Nc1cccc(C#N)c1
51: CCOc1ncccc1C(=O)N1CCN(S(=O)(=O)c2cccs2)CC1
52: COC(=O)C1=CO[C@@H](C)[C@H]2CN3CCc4c([nH]c5ccccc45)[C@@H]3C[C@H]12
53: CCCCCCSc1cccc(-c2nc3ccccn3c2NCc2ccccc2)c1
54: Cc1ccc(SCc2c(C(=O)N/N=C/C3CC=CCC3)nnn2-c2nonc2N)cc1 (centres undefined)
55: CC(C)(C)NC(=O)C(c1ccccn1)N(C(=O)C1CSC(=O)C1)c1ccccc1F (centres undefined)
56: CC(=O)n1cc(C(C[N+](=O)[O-])SCCN)c2ccccc21 (centres undefined)
57: CCCN(C(=O)CCNC(=O)c1ccc(Cl)cc1)c1c(N)n(Cc2ccccc2)c(=O)[nH]c1=O
58: Cc1cc(C)n2c(NC3CCCC3)c(-c3cc4ccccc4o3)nc2n1
59: O=C(CCc1nc(-c2ccccc2Cl)no1)NC1CCCCC1
60: O=C(Nc1ccc(F)cc1F)c1cccc(S(=O)(=O)N2CCCCC2)c1

assay / entry	47	48	49	50	51	52	53	54	55	56	57	58	59	60
CtBP-E1A inh	1	-4	2	-15	.	-9	5&-5	2	-3	-22	1	3	2	.
TRPML1 blocker	0	-2	22	6	19	18	11	6	-15	5	4	.	-13	9
TRPML1 ag	-0.2	-1.1	1.2	1.1	-0.7	0.5	3.5&0.9	0.5	1.0	5.7	0.1	-0.3	1.1	-0.9
TRPV1 potentiator	.	-2	0	-1	-16	-2	.	-12	-11	-19	-3	.	-20	-7
Six1-Eya2 inh	0	4	-2	15	-6	-11	8&-7	-24	13	-11	2	3	4	-3
D2 potentiator	0	-12	-5	-3	3	-37	6	-25	-7	-28	1	.	-4	-12

61: O=C(NCc1cccs1)c1cccnc1C(=O)O
62: O=C(Cn1nc(C(=O)O)c2ccccc2c1=O)c1c[nH]c2ccccc12
63: O=C(CSc1n[nH]c(-c2cccs2)n1)NCc1ccc2c(c1)OCO2
64: CC(=O)N1N=C(c2ccccc2)CC1c1cn(C)c2ccccc12 (centres undefined)

assay / entry	61	62	63	64
CtBP-E1A inh	2	-13	-3	20
TRPML1 blocker	3	-10	-3	20
TRPML1 ag	0.2	-0.1	0.7	2.3
TRPV1 potentiator	6	17	-13	-23
Six1-Eya2 inh	0	-11	-1	-7
D2 potentiator	-1	2	11	-16
